Source: PubChem (National Center for Advancing Translational Sciences (NCATS))
miR-21 reporter – miR-21 reporter, rising signal; HeLa miR-21 FLuc reporter, luciferase, 48 h; Potency, µM (top dose mostly 38.3 µM), for inactives: at the top dose reporter change, positive = more light; 340,000 tested, under 10 active; active = well fitted rising curve with a large enough effect; inconclusive = small, poorly fitted or top-dose-only effect; inactive = no such curve, though single readings can be large or run the other way;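 note: % of control where 0% means no effect; miR-21 action dims this reporter so a rising signal means less miR-21 action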
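Compounds were titrated across several concentrations (up to approximately 40 uM) and incubated 48 hours with HeLa miR-21-FLuc reporter cells (miR-21 target sequence downstream of FLuc, endogenous miR-21). Readout was firefly luciferase luminescence after lytic detection reagent.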
GLA inh pH 4.5 – inhibitors of human alpha-galactosidase A at pH 4.5; P06280; purified enzyme, 4-MU-alpha-Gal fluorescence, pH 4.5; activity change, negative = inhibition, % at 105 µM; 230,000 tested, under 10 active; AID 1467; inconclusive = small, poorly fitted or top-dose-only inhibition, or a rising curve; inactive = flat fitted curve, though single readings scatter; no compound was filed as active;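 note: 0% = full activity with enzyme and -100% = basal without enzyme; dose as in the result columns while the protocol names 77 µM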
Rango release inh – inhibition of RanGTP-driven Rango-importin beta dissociation. Biochemical FRET Rango-importin beta, RanGTP-induced dissociation. Potency, µM (highest dose often 46.1 µM), for inactives: at the highest dose activity change, negative = inhibition. 0.071% of 340,000 active. AID 540253; active means falling FRET ratio curve, often poorly fitted, with flat reads before Ran was added; inconclusive means other falling curves, or compound fluorescence or quenching; inactive means flat or rising ratio curve;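 note: potency is the fitted concentration of half-maximal effect; % of control where 0% means no effect; nearly all actives have a fitted effect of over 45% in size; -100% = wells without RanGTP and RCC1; the record marks most hits as doubtful in a second field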
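Compounds sat 5 min at room temperature with 0.1 uM Rango biosensor plus 0.25 uM importin beta, then FRET pre-read. RanGTP-RCC1 (0.6 uM Ran, 2mM GTP, 0.2 uM RCC1) added for 45 min, and the CFP/YFP post-read measured blocked complex dissociation.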
Rango complex inh – Rango-importin beta binding inhibition; Rango CFP/YFP FRET sensor + importin beta, 45 min; Potency, µM (doses to about 92.2 µM), for the others: at the highest dose inhibition of complex formation; 0.031% of 340,000 active; Q14974; active = rising FRET ratio curve, often small or poorly fitted; inconclusive = mostly compound fluorescence or quenching in the first reads; inactive = flat curves in all reads;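 note: potency is the fitted concentration of half-maximal effect; 0% = DMSO wells and 100% = buffer wells lacking importin beta; nearly all actives have a fitted effect of over 15% in size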
Target sequence (Q14974 whole entry, looked up): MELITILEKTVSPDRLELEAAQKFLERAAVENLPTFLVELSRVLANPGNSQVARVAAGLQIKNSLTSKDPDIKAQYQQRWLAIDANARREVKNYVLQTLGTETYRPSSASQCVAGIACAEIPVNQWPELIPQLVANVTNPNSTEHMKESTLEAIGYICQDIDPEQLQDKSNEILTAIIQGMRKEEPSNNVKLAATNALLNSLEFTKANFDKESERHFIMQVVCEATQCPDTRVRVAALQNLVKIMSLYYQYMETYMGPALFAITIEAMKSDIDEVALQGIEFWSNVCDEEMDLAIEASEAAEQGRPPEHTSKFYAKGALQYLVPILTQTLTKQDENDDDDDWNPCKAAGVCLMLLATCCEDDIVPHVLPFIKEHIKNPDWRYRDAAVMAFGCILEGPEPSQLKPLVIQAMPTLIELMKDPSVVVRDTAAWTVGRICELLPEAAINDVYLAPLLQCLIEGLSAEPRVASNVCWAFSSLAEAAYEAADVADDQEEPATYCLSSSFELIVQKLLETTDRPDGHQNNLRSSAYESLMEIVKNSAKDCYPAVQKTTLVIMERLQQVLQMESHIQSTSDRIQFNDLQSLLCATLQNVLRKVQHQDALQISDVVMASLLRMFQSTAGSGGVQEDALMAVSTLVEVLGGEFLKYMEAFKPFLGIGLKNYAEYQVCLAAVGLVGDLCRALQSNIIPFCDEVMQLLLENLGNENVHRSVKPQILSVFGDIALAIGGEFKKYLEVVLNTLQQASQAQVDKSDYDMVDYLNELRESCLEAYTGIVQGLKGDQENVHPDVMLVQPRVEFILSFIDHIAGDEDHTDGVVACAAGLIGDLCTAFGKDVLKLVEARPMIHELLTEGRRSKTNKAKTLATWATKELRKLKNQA
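FRET biosensor Rango (snurportin 1 IBB between N-terminal EYFP and C-terminal Cerulean), 50 nM in PBS/1 mM DTT/0.02% Tween-20/0.1% BSA, preincubated 5 min RT with compound; 0.125 microM importin beta added, 45 min RT, CFP/YFP FRET ratio read.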
Starred values were filed as active, the others as inactive; ? = inconclusive; · = no result given. An excerpt; rates above refer to the full screens.

Below each SMILES – miR-21 reporter	GLA inh pH 4.5	Rango release inh	Rango complex inh
- CCc1ccc(NC(=O)CC2C(=O)N(c3ccc(C)cc3)C(=O)N2C2CC2)cc1 (centres undefined)
→ -16%	-3	-1%	-1.3%
- COc1ccc(OC)c(/C=C/C(=O)OCC(=O)NC2CCCCCCC2)c1
→ ·	·	-12%	?
- Cc1cc(NC(=O)CCC2CCCC2)no1
→ -41%	2	-7%	0.0%
- Cc1ccc(OCC(O)CN2CCN(CCO)CC2)c(C)c1 (centres undefined)
→ 3%	·	-19%	6.0%
- CC(NC(=O)c1ccccc1)C(=O)OCC(=O)c1ccc(Br)cc1 (centres undefined)
→ -1%	·	-18%	2.4%
- C1CCC(OCCN2CCN(CCOC3CCCCC3)CC2)CC1
→ 0%	2	-3%	5.3%
- CCOC(=O)Nc1ccc2c3c(cccc13)-c1ccccc1-2
→ ·	·	?	?
- COC(=O)c1c(NC(=O)CC2SC(N)=NC2=O)sc2c1CCC(C)C2 (centres undefined)
→ -11%	-27	8%	-1.3%
- O=C(O)c1ccc(NCc2nc3cc4ccccc4cc3[nH]2)cc1
→ ·	·	-5%	-2.7%
- O=C(O)COc1ccc(Cl)cc1CO
→ 0%	6	-10%	-1.6%
- CN(C)C1=NC[C@H](Cc2ccccc2)N1CCCC1CCCCC1
→ ·	·	3%	-0.1%
- O=C(CSCc1c(F)cccc1Cl)NCC1CCCO1 (centres undefined)
→ -10%	-5	3%	-1.5%
- CC1(C)Cc2c(sc3nnn(Cc4ccccc4)c(=O)c23)CO1
→ -17%	-8	-4%	-3.7%
- Cc1cccc(NNC(N)=S)c1C
→ 4%	8	20%	-4.6%
- COCc1cc(C)nc(SCc2ccc(Br)cc2)c1C#N
→ ·	·	16%	-0.3%
- COc1ccc2[nH]c(=O)c(CN(C(C)=O)c3ccc(C)cc3C)cc2c1
→ -13%	·	2%	-1.4%
- CCN(CC)C(=O)Cc1ccccc1
→ -5%	2	2%	-0.6%
- CC(C)(C)C(=O)Nc1cccc(-c2ncon2)c1
→ -1%	2	13%	-1.5%
- Cc1ccc(-n2nc(C)c(C(C)(O)C(F)(F)F)c2N)cc1 (centres undefined)
→ -22%	4	3%	-0.8%
- CCCCC(=O)Nc1ccc(N2CCN(C(=O)c3ccco3)CC2)cc1
→ -2%	·	0%	-2.9%
- O=C(c1cc2ccccn2n1)N1CCCC1
→ -5%	-1	·	·
- CCC(=O)Nc1cccc(NC(=O)CSc2nnc(C(C)C)n2CC)c1
→ -5%	0	-2%	-0.2%
- CCOc1cc(/C=N\NC(=O)c2ccc(NC(=O)C(C)(C)C)cc2)ccc1OC(=O)c1cccc(C)c1
→ 10%	-7	-1%	-3.2%
- Cc1ccc(C(=O)N2CCC(C(=O)NCc3ccco3)CC2)cc1
→ 1%	·	0%	-2.6%
- O=C(O)c1cccc(-n2cccc2/C=C/[N+](=O)[O-])c1
→ 0%	-2	-7%	-0.5%
- CCn1nnnc1SCC(=O)Nc1ccc(OCc2ccccc2)cc1
→ -2%	10	5%	-1.2%
- Cc1ccc(NC(=O)COc2coc(CN3CCc4ccccc43)cc2=O)cc1Cl
→ ·	·	-9%	1.6%
- CCOC(=O)c1c(NC(=O)CN2C(=O)NC3(CCC(C)CC3)C2=O)sc(C(=O)N(C)C)c1C (centres undefined)
→ ·	·	-13%	?
- Cn1c(SCc2nc(-c3ccc(Br)cc3)no2)nnc1-c1ccco1
→ 2%	7	-2%	7.9%
- CSc1ccc(C(=O)C2CCCN(C(=O)Cc3nonc3C)C2)cc1 (centres undefined)
→ 0%	6	-17%	?
- CCc1ccc(NC(=O)CCn2c(=O)oc3ccccc32)cc1
→ -20%	9	8%	-2.8%
- CCc1ccc2oc(C(=O)Nc3cccnc3)c(C)c2c1
→ -37%	·	-6%	2.4%
- Oc1ccccc1C1=Nc2nc3ccccc3n2C(c2ccccc2)C1 (centres undefined)
→ -43%	-7	?	?
- COc1ccc(CC(=O)NCc2n[nH]c(=S)n2-c2ccccc2OC)cc1
→ -11%	2	?	2.4%
- CCOC(=O)C1=CC[C@H]2c3c(c4ccccc4n3C)C(=O)C1N2C
→ ·	·	-32%	-2.5%
- O=C(CCc1ccccc1)Nc1ccc2c(c1)OCO2
→ -60%	·	-13%	3.0%
- N#C/C(=C\c1cccnc1)c1ccccc1[N+](=O)[O-]
→ 26%	·	2%	1.7%
- COc1ccc(Cc2cc(NCc3ccccc3)c3ncn(C(C)C)c3c2)cc1
→ ·	·	-9%	0.5%
- Cc1cccc(CN(C(=S)Nc2c(C)cccc2C)c2cccnc2)c1
→ -5%	-1	10%	0.5%
- C=CCSc1nc2ccccc2c(=O)n1Cc1ccccc1
→ -7%	-9	0%	-0.3%
- CC(=O)N=c1sc(C(C)(C)C)c(C)n1C
→ -10%	-4	-7%	5.3%
- COc1ccc2oc(=N)c(C(=O)Nc3ccc(F)cc3)cc2c1
→ -6%	·	7%	-1.8%
- CS(=O)(=O)N1CCN(c2ccc(NC(=O)COc3ccccc3)cc2)CC1
→ 1%	-4	21%	-1.2%
- Nc1c(C(=O)c2ccccc2)oc2ccccc12
→ -42%	4	-19%	?
- CC(C(=O)N1CCCCCC1)N(c1ccc(Cl)cc1)S(C)(=O)=O (centres undefined)
→ 6%	·	18%	-0.8%
- Cc1ccc(NC(=O)CN2C(=O)NC(C)(CC(C)C)C2=O)c(Br)c1 (centres undefined)
→ ·	·	-8%	-4.6%
- COc1cc(C2CC(=O)c3cnc(NC(=O)COc4ccccc4)nc3C2)cc(OC)c1OC (centres undefined)
→ -4%	-2	25%	-1.1%
- Brc1ccccc1OCCCN1CCCC1
→ -10%	·	14%	1.1%
- COc1c(N2CCN(C(=S)Nc3ccccc3F)C(C)C2)c(F)cc2c(=O)c(C(=O)O)cn(C3CC3)c12 (centres undefined)
→ 2%	8	-2%	-3.1%
- N#CCCN(Cc1cccnc1)C(=S)NCc1ccco1
→ 4%	-1	16%	0.0%
- CSc1cnc2c(=O)[nH]c(=O)n(C)c2n1
→ -14%	1	7%	-2.9%
- CNS(=O)(=O)c1cccc(C(=O)OCC(=O)c2cc3ccccc3o2)c1
→ -1%	-24	-14%	0.3%
- O=C(OCC(=O)c1c[nH]c2ccccc12)c1cccc([N+](=O)[O-])c1
→ ·	·	4%	-0.7%
- O=C(C[n+]1ccc(C(=O)NCc2ccccc2)cc1)c1ccc(Cl)cc1
→ 1%	·	-11%	?
- CN(Cc1ccccc1)S(=O)(=O)c1ccc(S(=O)(=O)N(Cc2ccc(F)cc2)C2CCCC2)cc1
→ -3%	-2	-4%	2.2%
- Cc1ccc(NC(=O)C/C(N)=N/O)cc1Cl
→ -3%	1	0%	-0.1%
- NCC(=O)NCC(=O)NC[C@H]1O[C@@H](n2cnc3c(N)ncnc32)[C@H](O)[C@@H]1O
→ ·	·	-7%	1.9%
- N#CC(C#N)=Cc1cc2ccccc2nc1N1CCOCC1
→ -9%	-19	4%	-3.4%
- CC(=O)Nc1ccc(NC(=O)C(=O)NCC(c2ccco2)N2CCc3ccccc3C2)cc1 (centres undefined)
→ ·	·	-2%	?
- N#Cc1ccc(-c2csc(NC(=O)C3CC3)n2)cc1
→ -32%	-2	2%	-3.9%

Later entries:
Below each SMILES – miR-21 reporter	GLA inh pH 4.5	Rango release inh	Rango complex inh
- COc1cc2c(cc1OC)CN(C(=O)c1ccc([N+](=O)[O-])o1)CC2
→ 12%	-18	3%	0.3%
- CCOC(=O)/C(C)=N/Nc1nc(-c2ccc(NC(C)=O)cc2)cs1
→ 15%	-6	3%	3.5%
- CCOc1ccc(NC(=O)CCN2C(=O)c3cccc([N+](=O)[O-])c3C2=O)cc1
→ 0%	·	0%	0.8%
- CCOC(=O)CNC(=O)CSc1ncnc2c1cnn2Cc1ccccc1
→ 6%	3	-7%	-0.7%
- O=C(Nc1ccccc1)c1ccc(OC(=O)c2cc3ccccc3o2)cc1
→ -21%	3	10%	1.0%
- O=C1c2ccccc2CN1Cc1ccccc1
→ -4%	·	0%	2.9%
- COC(=O)c1cc(OC)c(OC)cc1N1C(=O)CC(C)(C)CC1=O
→ -4%	·	-1%	-0.4%
- Cc1ccc(S(=O)(=O)CCC(=O)NCc2ccccc2F)cc1
→ ·	·	-5%	2.6%
- CCOC(=O)c1ccc2nc(NC(=O)c3cccs3)sc2c1
→ -34%	-11	-14%	-8.1%
- CCC(=O)NC(NCC1CCCO1)C(Cl)(Cl)Cl (centres undefined)
→ -2%	-4	17%	-0.7%
- CCN1CCN(CCCNC(=O)c2ccc3c(c2)NC(=O)/C(=C\c2cccc(C)c2)S3)CC1
→ ?	·	-22%	0.5%
- COCCCNC(=O)Cc1ccc(-n2c(C)nc3cccnc32)cc1
→ -1%	·	-18%	?
- O=C(NCc1ccco1)c1cnn2c1NC(c1ccc(Br)cc1)CC2C(F)(F)F (centres undefined)
→ 1%	-16	1%	-3.0%
- CCc1cc(=O)oc2cc(OC3CCCCC3=O)ccc12 (centres undefined)
→ -24%	·	1%	2.6%
- Cc1ccc2c(c1)-c1c(ssc1=S)C(C)(C)N2C(=O)CSc1nncn1C
→ 1%	-6	15%	7.2%
- O=S(=O)(NC1CC2CCC1C2)c1ccc(Br)s1 (centres undefined)
→ 5%	5	-1%	-2.4%
- COc1ccc(NC(=S)N/N=C/c2ccc(F)cc2)cc1OC
→ -46%	2	1%	3.0%
- Cn1c(=O)c2cc(S(=O)(=O)NC(C(=O)NCc3cccnc3)c3ccccc3)ccc2n(C)c1=O (centres undefined)
→ -3%	-6	26%	0.2%
- COc1ccc(-c2cc3ccc(OCC(C)=O)cc3oc2=O)cc1OC
→ -62%	·	-18%	?
- COc1ccc(OC)c(N(CC(=O)NCCc2ccc(OC)c(OC)c2)S(=O)(=O)c2ccccc2)c1
→ 0%	·	-13%	-1.4%
- CN1CCN(CCC(=O)N/N=C/c2cc([N+](=O)[O-])ccc2OC(F)F)CC1
→ -1%	6	-7%	4.8%
- CCN1CCN(C(=O)C2CC(c3ccc(F)cc3)=NO2)CC1 (centres undefined)
→ -11%	0	23%	-0.5%
- COc1ccc(OC)c(S(=O)(=O)N2CCN(C)CC2)c1
→ 2%	-7	-2%	4.4%
- CC(C)NC(=O)c1ccc2c3n(nc2c1)-c1ccc(Cl)cc1CO3
→ -23%	7	-28%	?
- CCN(CC)CCNC(=O)c1cc(S(=O)(=O)N2CCc3ccccc32)cn1C
→ 3%	·	17%	2.0%
- Cc1nnc(SCc2cc(=O)[nH]c(Nc3nc(C)c4cc(C)c(C)cc4n3)n2)s1
→ 0%	-12	-11%	-0.9%
- Cc1ccc(C)c(SCC(=O)Nc2nnc(-c3ccccc3)o2)c1
→ -6%	-6	-7%	-0.3%
- O=C(Nc1ccc(Cl)cc1)c1cc(Br)ccc1OCC(=O)N1CCOCC1
→ -1%	·	22%	-5.6%
- CCOC(=O)c1cccc(NS(=O)(=O)c2c(C)[nH]c(C)c2C(=O)N2CCCC2)c1
→ 5%	·	-3%	1.0%
